High-throughput results: PubChem, National Center for Advancing Translational Sciences (NCATS)
Rango dissoc inh – inhibitors of RanGTP-induced Rango-importin beta complex dissociation. Biochemical FRET Rango-importin beta, RanGTP-induced dissociation. Potency, µM (doses to about 46.1 µM), inactives show top-dose activity change, negative = inhibition. 340,000 tested, 0.071% active. AID 540253; active means falling FRET ratio curve, often poorly fitted, with flat reads before Ran was added; inconclusive means other falling curves, or compound fluorescence or quenching; inactive means flat or rising ratio curve;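 note: potency is the fitted concentration of half-maximal effect; % of control where 0% means no effect; nearly all actives have a fitted effect of over 45% in size; -100% = wells without RanGTP and RCC1; the record marks most hits as doubtful in a second field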
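Recombinant Rango FRET biosensor (EYFP–snurportin 1 IBB–cerulean CFP10) at 0.1 uM premixed with 0.25 uM importin beta in PBS, 1 mM DTT, 0.02% Tween-20, 0.1% BSA. Compound added 5 min; RanGTP-RCC1 (0.6 uM Ran, 2 mM GTP, 0.2 uM RCC1) then triggers release, read at 45 min.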
GLA inh pH 4.5 – alpha-galactosidase A (human) inhibition, pH 4.5. purified enzyme, 4-MU-alpha-Gal fluorescence, pH 4.5. AID 1467. 230,000 tested, under 10 active. activity change, negative = inhibition, % at 105 µM; inconclusive = small, poorly fitted or top-dose-only inhibition, or a rising curve; inactive = flat fitted curve, though single readings scatter; no compound was filed as active;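 note: 0% = full activity with enzyme and -100% = basal without enzyme; dose as in the result columns while the protocol names 77 µM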
Target sequence (P06280 whole entry, looked up): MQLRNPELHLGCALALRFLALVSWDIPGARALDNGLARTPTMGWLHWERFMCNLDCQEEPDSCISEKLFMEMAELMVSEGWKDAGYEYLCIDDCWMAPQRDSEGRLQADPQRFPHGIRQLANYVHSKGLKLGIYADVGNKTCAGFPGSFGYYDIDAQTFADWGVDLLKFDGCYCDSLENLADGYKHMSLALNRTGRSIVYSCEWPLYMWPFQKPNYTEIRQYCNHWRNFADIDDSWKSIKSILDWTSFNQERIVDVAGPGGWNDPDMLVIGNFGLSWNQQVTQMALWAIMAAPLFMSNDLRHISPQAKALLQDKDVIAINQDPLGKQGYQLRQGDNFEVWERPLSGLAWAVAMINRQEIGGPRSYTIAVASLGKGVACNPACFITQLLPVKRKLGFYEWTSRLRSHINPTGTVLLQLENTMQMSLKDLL
miR-21 FLuc – miR-21 reporter, rising signal | HeLa miR-21 FLuc reporter, luciferase, 48 h | Potency, µM (top dose mostly 38.3 µM), inactives show at the highest dose reporter change, positive = more light | 340,000 tested, under 10 active | AID 2288; active = well fitted rising curve with a large enough effect; inconclusive = small, poorly fitted or top-dose-only effect; inactive = no such curve, though single readings can be large or run the other way;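 note: % of control where 0% means no effect; miR-21 action dims this reporter so a rising signal means less miR-21 action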
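Luminescence from a firefly luciferase reporter carrying a miR-21 binding site downstream, stably expressed under a CMV promoter in HeLa cells that make miR-21 endogenously, reports miRNA modulation after 48 h compound exposure up to approximately 40uM final.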
Rango-impB inh – Rango-importin beta binding inhibition | 340,000 tested, 0.031% active | Rango CFP/YFP FRET sensor + importin beta, 45 min | AID 540263 | Potency, µM (series often up to 92.2 µM), for inactives: at the top dose inhibition of complex formation | Q14974; active = rising FRET ratio curve, often small or poorly fitted; inconclusive = mostly compound fluorescence or quenching in the first reads; inactive = flat curves in all reads;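 note: potency is the fitted concentration of half-maximal effect; 0% = DMSO wells and 100% = buffer wells lacking importin beta; nearly all actives have a fitted effect of over 15% in size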
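FRET biosensor (snurportin 1 IBB flanked by EYFP and cerulean), 50 nM, with compound 5 min, then 0.125 microM importin beta in PBS, 1 mM DTT, 0.02% Tween-20, 0.1% BSA. CFP/YFP ratio read after 45 min at room temperature; pre-read flags interference.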
Starred values were filed as active, the others as inactive; ? = inconclusive; · = not tested or not shown. This is a subset; the hit share may differ from the screen's.

Rango dissoc inh,GLA inh pH 4.5,miR-21 FLuc,Rango-impB inh,Structure
19.3%,·,-0.7%,0.1%,COc1ccc(N(CC(=O)N/N=C/c2cc(OC)ccc2OC)S(=O)(=O)c2ccccc2)cc1
-13.5%,-3.1,16.2%,-1.0%,CC1(C)CC(=O)C(C=NCCN2CCN(C(=O)CCl)CC2)=C(O)C1
1.4%,2.7,-2.2%,5.7%,COc1ccc(Oc2ccc(/C=C/C(=O)c3cccc(OC)c3)cc2[N+](=O)[O-])cc1
23.2%,3.5,-35.4%,2.3%,CC(C)OC(=O)c1ccc(Cn2nnc3ccccc3c2=O)cc1
12.7%,·,4.3%,-0.8%,CCCc1c(O)nc(SCC(=O)N2CCCCC2)[nH]c1=O
10.2%,5.8,1.2%,-2.3%,COc1ccc(C(=O)CSc2ccc(-c3ccco3)nn2)cc1
20.1%,-1.5,-4.5%,?,N#Cc1c(NCCO)ccc([N+](=O)[O-])c1NCCO
0.3%,·,·,2.9%,Cc1ccc(C)c(S(=O)(=O)N2CCN(C(=O)c3n[nH]c(=O)c4ccccc34)CC2)c1
4.0%,-11.0,0.3%,1.3%,O=C(OCc1nc(-c2ccccc2)oc1COC(=O)c1ccco1)c1ccco1
10.4%,·,-1.3%,2.2%,COc1ccccc1C(C)NCC(=O)NCc1ccc(C)cc1 (stereo not drawn)
5.1%,2.5,-3.0%,0.2%,CC(CN1CCN(Cc2ccccc2)CC1)OC(=O)c1ccco1 (stereo not drawn)
?,1.2,11.1%,?,CC(=O)c1cc2c(C)cc(=O)oc2cc1O
-8.5%,4.2,14.6%,?,CC(C)OCCCNc1nc2c([nH]1)c(=O)n(C)c(=O)n2C
0.7%,14.3,-46.7%,3.6%,Cc1ccc(-c2nc3ccccc3[nH]c2=O)cc1
-0.7%,·,-13.2%,0.5%,Cc1cc(CN2CCCCC2C(=O)Nc2ccc(Oc3cccnc3)cc2)oc1C (stereo not drawn)
-19.0%,·,·,-0.7%,COc1ccc(C(CNC(=O)c2ccc(N3CCCC3=O)cc2)N2CCCC2)cc1 (stereo not drawn)
21.8%,·,·,-3.5%,Brc1nc(-c2ccccc2)nc(-c2ccccc2)c1Br
·,-9.2,-6.1%,·,COc1ccc2[nH]c3c(NCCN4CCCCC4)ncnc3c2c1
0.0%,·,·,7.3%,O=C(Nc1ccccn1)c1ccc(C(=O)c2ccccc2)cc1
-13.5%,·,-26.5%,?,Cc1ccc(OCCn2ncc3ccccc3c2=O)c(C)c1
-1.4%,·,·,0.4%,CC(=O)c1ccc(S(=O)(=O)Nc2ccc(S(=O)(=O)N3CCCCC3)cc2)cc1
1.1%,-6.4,0.9%,-1.6%,CCOC(=O)N1CCN(CC(=O)Nc2ccc([N+](=O)[O-])cc2C(=O)Nc2ccccc2F)CC1
30.0%,·,-2.7%,0.8%,COCCCn1c(SCC(=O)NC2CCCC2)nnc1-c1cccs1
?,-4.7,-11.4%,?,Oc1c(Cl)cc(Cl)cc1C=Nc1ccc(Br)cc1
7.2%,10.9,0.2%,-3.4%,CC12CCC(C(=O)NCCN3CCCCC3)(CC1=O)C2(C)C (stereo not drawn)
-14.9%,·,·,1.1%,Cc1ccc(C(=O)N2CCc3ccccc32)cc1C
-3.1%,-7.0,-3.1%,-0.2%,COc1ccc(-n2c(Cc3cccn3C)nnc2SCC(=O)Nc2ccccc2C)cc1
0.8%,3.0,-10.0%,0.2%,COc1ccccc1N1CCN(C(=O)CN(c2cc(C)cc(C)c2)S(C)(=O)=O)CC1
2.3%,3.4,-3.2%,-0.9%,CCOC(=O)C(CC)n1cnc2c(cnn2-c2ccc(Cl)cc2)c1=O (stereo not drawn)
-1.6%,10.5,-1.1%,2.3%,Cn1c(SCC(=O)N2CCN(S(=O)(=O)c3ccccc3)CC2)nc2ccccc21

Rango dissoc inh,GLA inh pH 4.5,miR-21 FLuc,Rango-impB inh,Structure
3.1%,-9.7,-5.4%,0.1%,O=C(c1cn(CC(=O)N2CCCC2)c2ccccc12)C1CCCCC1
16.4%,·,13.6%,7.4%,O=[N+]([O-])c1ccc(N2CCN(Cc3ccncc3)CC2)cc1
-14.4%,·,·,?,O=C(c1cc([N+](=O)[O-])ccc1N1CCOCC1)N1CCN(c2ccc([N+](=O)[O-])cc2)CC1
-4.0%,·,-0.7%,-0.4%,CCOc1ccc(C(=O)N2CCC3(CC2)NCCc2[nH]cnc23)cc1OCC
-5.8%,8.5,-1.2%,-1.4%,Cc1cccn2c(=O)c(C=Nc3ccccc3)c(NCCO)nc12
-10.2%,·,·,0.7%,Nc1ccc(-n2c(N)c(C(=O)NCc3ccc4c(c3)OCO4)c3nc4ccccc4nc32)cc1
22.3%,-1.5,-0.5%,-0.1%,COc1ccc(/C=C/C(=O)N[C@@H](C)C(=O)O)cc1
-29.4%,·,-3.7%,?,CCOC(=O)C1CCCN(C(=O)/C(=C/c2ccco2)NC(=O)c2ccccc2)C1 (stereo not drawn)
-4.3%,2.5,-4.7%,-2.1%,O=C(CCCCCN1C(=O)CCC1=O)Nc1ncn[nH]1
0.0%,·,-3.3%,0.1%,O=C(O)c1ccc(CS(=O)(=O)c2c(Cl)cccc2Cl)o1
-11.2%,·,-0.3%,0.6%,CCOc1ccc(N(CC(=O)NC2CCCCC2)S(=O)(=O)c2ccc(C)cc2)cc1
-9.2%,·,4.8%,5.0%,CCN(CC)CCOC(=O)c1ccc(NC(=O)CCCN2C(=O)/C(=C/c3cccs3)SC2=S)cc1
6.8%,·,·,0.0%,CC(=O)Nc1c(C)ccc([N+](=O)[O-])c1C
-7.2%,·,-14.9%,-1.0%,COc1ccc(C(C)(C)C)cc1NC(=O)c1cccc(S(=O)(=O)N2CCN(C(C)=O)CC2)c1
1.2%,-24.2,-9.2%,-0.4%,O=C1NC(c2cc(Cl)cc([N+](=O)[O-])c2O)Nc2ccccc21 (stereo not drawn)
-2.0%,-4.8,-26.0%,1.8%,O=C(COc1ccccc1Cl)Nc1nc(-c2cccs2)cs1
-1.5%,·,-0.1%,-4.5%,CCCc1nc2c(ccc3ccccc32)cc1CC
17.5%,·,-5.8%,3.5%,COC(=O)c1cn(C(=O)c2cccc(Br)c2)c2ccccc12
1.4%,-19.5,-17.4%,0.8%,O=C(Nc1nnc(SCc2ccccc2Cl)s1)C1COc2ccccc2O1 (stereo not drawn)
2.8%,·,·,0.0%,CC(OC(=O)/C=C/c1ccccc1)C(=O)Nc1ccc(C(N)=O)cc1 (stereo not drawn)
16.2%,2.6,-24.6%,-1.0%,O=C(CSc1ccc(-c2ccccc2)nn1)N1CCCCC1
-0.3%,-3.6,0.4%,5.4%,CC(C)Nc1nnc(SCC(=O)c2c(N)n(Cc3ccccc3)c(=O)n(C)c2=O)s1
15.3%,·,·,-0.1%,O=Cc1c[nH]c2ccc(OCc3ccccc3)cc12
2.8%,0.1,1.2%,0.8%,COCCNC(=O)c1c[nH]c2ccc(OC)cc2c1=O
-14.0%,·,-40.4%,-1.0%,COc1ccc(OC)c(NC(=O)c2ccc(-c3csc(C)n3)cc2)c1
-0.1%,-1.3,-1.8%,0.4%,CCOC(=O)c1cnc(SCC(=O)Nc2sc(C)c(C)c2C#N)nc1N
4.9%,·,-6.6%,-0.3%,CC(CCN1CCN(CCO)CC1)c1ccccc1 (stereo not drawn)
-7.7%,·,3.2%,3.2%,O=C(O)C1CCN(S(=O)(=O)Cc2ccccc2)CC1
?,·,·,-1.8%,C[C@]12c3[nH]c4ccccc4c3CCN1C(=O)C(CC(=O)NCCCn1ccnc1)C[C@@H]2C(=O)N1CCOCC1 (stereo partly drawn)
-1.1%,3.4,-14.2%,1.2%,NC(=O)COC(=O)c1ccc2c(c1)S(=O)(=O)N=C1CCCCCN12

Rango dissoc inh,GLA inh pH 4.5,miR-21 FLuc,Rango-impB inh,Structure
22.4%,·,·,4.1%,COc1ccccc1NS(=O)(=O)c1cccc(NC(=O)C2CC2)c1
-8.0%,·,·,-1.1%,CC(OC(=O)c1nn(C)c(=O)c2ccccc12)C(=O)Nc1ccc(S(N)(=O)=O)cc1 (stereo not drawn)
-6.7%,·,·,-3.4%,O=C(CNC(=O)c1ccccc1F)OCC(=O)c1c[nH]c2ccccc12
6.1%,-5.8,3.1%,5.6%,CN1CCN(c2ccc([N+](=O)[O-])cc2C(=O)Nc2ccccc2)CC1
4.1%,7.8,-1.1%,0.2%,Cc1cc(C)c(C(=O)N2CCCC(CNC(=O)C3(c4ccc(Cl)cc4)CC3)C2)c(=O)[nH]1 (stereo not drawn)
3.9%,·,-2.6%,-0.8%,CCN(CC)CCN(CC(=O)Nc1c(C)cc(C)cc1C)C(=O)c1ccccc1
-6.7%,-4.2,-1.8%,?,CC(/C=C/c1ccccc1)=N\Nc1nc(-c2ccccc2)cs1
27.9%,·,-3.1%,-0.9%,COc1ccccc1CCN1CCCC(CN(C)C(=O)c2ccco2)C1 (stereo not drawn)
2.2%,·,-21.8%,5.6%,Cc1oc2cc3oc(=O)c(CCC(=O)N4C[C@H]5C[C@@H](C4)c4cccc(=O)n4C5)c(C)c3cc2c1C
-7.7%,·,-1.8%,-1.7%,O=C(CCN1C(=O)/C(=C/c2ccc(Cl)cc2)SC1=S)Nc1ccc(C(=O)O)cc1
0.8%,·,-2.3%,-0.4%,COc1ccc(-c2nc3ccc(C)cc3c(=O)o2)cc1OC
23.6%,2.2,-8.4%,2.1%,CC(C)NC(=O)c1ccc(N2CCOCC2)nc1
7.2%,0.2,-73.1%,0.1%,Cc1nn(C(=O)c2cccs2)c(N)c1-c1ccccc1
17.6%,4.1,0.9%,-0.3%,COc1ccccc1S(=O)(=O)Cc1ccc(C(=O)NCCN2CCCC2)o1
1.7%,-11.3,-22.8%,-0.7%,COc1ccccc1-c1cc(C(=O)NCc2cccs2)no1
-5.0%,-2.7,0.0%,-1.7%,CC1=CC(=C(C#N)C#N)C=C(C)N1CCC(C)C
13.3%,-6.1,-0.9%,2.5%,COc1ccccc1CC(NC(C)=O)C(=O)NC1CCN(c2nnnn2-c2ccccc2)CC1 (stereo not drawn)
-15.1%,·,16.0%,0.0%,CN(C)c1ccc(NC(=O)CN2CCC(NC(=O)C3CCCCC3)CC2)cc1
-12.2%,-0.8,-7.7%,-2.1%,Cc1ccc(O)c(C2=NOC(O)(C(F)(F)C(F)F)C2)c1 (stereo not drawn)
1.2%,-6.6,-0.5%,3.1%,OCCOc1nnnn1-c1ccccc1
-1.6%,·,0.3%,0.1%,Cc1[nH]n(-c2ccccc2)c(=O)c1C(c1ccccc1[N+](=O)[O-])C(C#N)C#N (stereo not drawn)
-0.6%,-1.1,-2.5%,0.1%,Cc1ccc(C(=O)COC(=O)CCC(=O)Nc2ccccc2Cl)cc1[N+](=O)[O-]
